# Bioassay records: PubChem BioAssay, Southern Research Institute
# Mtb H37Rv = Mycobacterium tuberculosis H37Rv growth inhibition, cell based, confirmatory dose response (AID 1949); most inactive calls were filed without a number and no value below 0 was filed; inhibition, % at 10 µg/mL; hits with a dose series show IC50 in µg/mL; 1.6% of 100,000 active;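 active = confirmed in a dose series; inconclusive = about 50% or more but not retested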;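 also: bacteria grown 7 days with compound before Alamar blue readout; 0% = untreated bacteria and 100% = reference antibiotic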
# Starred values were filed as active, the others as inactive; i = inactive; ? = inconclusive. This is a subset. The share of hits here may be higher or lower than overall.
SMILES,Mtb H37Rv
CCC(C)c1ccc(NC(=S)Nc2cccc(C(=O)NCc3ccccc3)c2)cc1 (stereo not drawn),i
Cc1ccnc(SCC(=O)Nc2nc(-c3ccccc3)cs2)n1,i
C=CCn1c(SCC(=O)Nc2cccc(C(=O)O)c2)nnc1-c1ccccc1Cl,i
Cc1nc(/N=C(/N)Nc2cccc(Cl)c2C)[nH]c(=O)c1Cc1ccccc1,9.8%
CCc1ccc(N(CC(=O)Nc2ccccc2C(=O)OC)S(=O)(=O)c2ccccc2)cc1,i
CC1(C)CC(NC(=O)CCC2CCCCC2)CC(C)(C)N1,i
CCOC(=O)N1CCN(C(=S)Nc2ccccc2OC)CC1,i
CCOc1ccc(N2CC(C(=O)Nc3ccc(CC)cc3)CC2=O)cc1 (stereo not drawn),i
COc1ccccc1C(=O)N(Cc1ccc(C(C)C)cc1)C1CCS(=O)(=O)C1 (stereo not drawn),i
COc1ccc(C(=O)CCC(=O)Nc2cccnc2)c(OC)c1,i
CCN(C(=S)NC(=O)c1ccccc1I)c1ccccc1,i
Cc1cc(C(=O)Nc2ccc(O)c(C(=O)O)c2)oc1C,i
Cc1cc(C)c2nc(C(F)(F)F)nc(N3CC(C)OC(C)C3)c2c1 (stereo not drawn),5.0%
O=C(c1cccc(S(=O)(=O)Nc2ccccc2Cl)c1)N1CCCc2ccccc21,i
CCOc1c(OC)cccc1C1C(C(=O)OC)=C(C)Nc2ncnn21 (stereo not drawn),0.4%
O=C(NNC(=O)C(c1ccccc1)c1ccccc1)NC1CCCCC1,i
COc1ccc(CCNC(=O)Cc2cccs2)cc1OC,i
O=C(CCN1C(=O)C2C3C=CC(C3)C2C1=O)Oc1cccc2cccnc12 (stereo not drawn),14.8µg/mL*
O=C(NCc1cccnc1)c1ccc(N2CCCCC2)c([N+](=O)[O-])c1,2.9%
O=C(Cc1ccccc1)Nc1ccccc1C(=O)NCc1ccccc1,2.1%
Cc1nn(C)c(C)c1NC(=O)c1ccc(Cl)cc1,i
Cc1ccc2[nH]c(=O)c(CN(C)C(=O)c3cccc(Cl)c3)cc2c1,i
C=CCc1ccccc1OCC(=O)OC,i
O=C(Nc1cccc([N+](=O)[O-])c1)c1ccc(NC(=O)c2ccc(Cl)cc2Cl)cc1,0.9%
CC(C)CNC(=O)c1ccc(COc2ccc3ccccc3c2)o1,i

# 7 entries from above, bar-delimited:
Structure | Mtb H37Rv
Cc1nc(/N=C(/N)Nc2cccc(Cl)c2C)[nH]c(=O)c1Cc1ccccc1 | 9.8%
CCc1ccc(N(CC(=O)Nc2ccccc2C(=O)OC)S(=O)(=O)c2ccccc2)cc1 | i
CC1(C)CC(NC(=O)CCC2CCCCC2)CC(C)(C)N1 | i
CCOC(=O)N1CCN(C(=S)Nc2ccccc2OC)CC1 | i
CCOc1ccc(N2CC(C(=O)Nc3ccc(CC)cc3)CC2=O)cc1 (stereo not drawn) | i
COc1ccccc1C(=O)N(Cc1ccc(C(C)C)cc1)C1CCS(=O)(=O)C1 (stereo not drawn) | i
COc1ccc(C(=O)CCC(=O)Nc2cccnc2)c(OC)c1 | i

# Following part:
SMILES,Mtb H37Rv
CC1CC(NC(=O)c2cc(F)c(F)cc2Cl)CC(C)(C)C1 (stereo not drawn),i
CCC(C(=O)N(Cc1ccccc1)C(C)C)c1ccccc1 (stereo not drawn),2.2%
CC(=O)c1ccc(COc2ccccc2C(=O)Nc2ccccc2)cc1,i
COc1cc(C=O)ccc1OCC(=O)Nc1ccccc1N1CCOCC1,i
CC1=NN(c2ccc(S(N)(=O)=O)cc2)C(=O)/C1=C\c1ccccc1OCc1ccccc1,0.4%
CCOC(=O)COc1nc2ccc(Cl)cc2c(-c2ccccc2)c1C(C)=O,i
O=c1cc(CSc2nnnn2-c2ccccc2)nc2nc[nH]n12,i
O=C(CN1C(=O)c2cccc3cccc1c23)N1CCCC1,i
CC(C)(CNC(=O)C(Cl)(Cl)Cl)CNC(=O)C(Cl)(Cl)Cl,i
COc1ccc(S(=O)(=O)N(CC(=O)NCc2ccccc2)c2ccccc2OC)cc1,i
CCc1cccc(CC)c1NC(=S)Nc1cc(Cl)ccc1OC,i
COc1cc(C(=O)NCC(C)(C)CNC(=O)c2cc(OC)c(OC)c(OC)c2)cc(OC)c1OC,i
CCc1ccc(NC(=O)CSc2nnc(Cc3ccccc3)n2CCOC)cc1,i
COc1ccc(NC(=S)NCCc2ccccc2OC)c(OC)c1,i
COc1cc(NC(=S)NCCSc2ccc(Cl)cc2)cc(OC)c1,1.6%
O=C1c2cccc3cccc(c23)C(=O)N1CC(O)c1ccccc1 (stereo not drawn),1.0%
COc1ccc(OC)c2c(C)cc(C)nc12,i
CCCC(=O)N1CC2(CC)CN(C(=O)CCC)CC(CC)(C1)C2=O,i
CCN(CC)c1ccc(-n2nc3cc(C)c(NC(=O)c4ccco4)cc3n2)cc1,i
CCc1[nH]nc2c1C1(C(=O)N(Cc3ccccc3)c3ccccc31)C(C#N)=C(N)O2 (stereo not drawn),4.3%
C#CCSc1nnc(-c2ccccc2)o1,?
CC(=O)Nc1sc2c(c1C(=O)Nc1c(C)cccc1C)CCCCC2,i
Cc1c(Cc2ccccc2)sc(NC(=S)NC(=O)c2ccc(Br)o2)c1C(N)=O,7.1%
COc1ccc2nc(SCC(=O)c3ccc(O)c(O)c3)[nH]c2c1,i
CCCCOc1ccc(C(=O)NC(=S)Nc2cccc(C(C)=O)c2)cc1,4.2%

# Next part
SMILES,Mtb H37Rv
COc1cc2c3c(c1)-c1c(sn(-c4cccc(F)c4)c1=S)C(C)(C)N3C(=O)C2=O,i
Cc1ccc(OCC(=O)Nc2ccccc2F)cc1C,i
COc1ccc(CC(=O)NC(=S)Nc2ccc(S(=O)(=O)Nc3ccc(C)c(C)c3)cc2)cc1,i
O=C(N/N=C/c1ccncc1)c1cc(-c2ccc(Cl)cc2)n[nH]1,i
CC(C)NC(=O)C(=O)NCCN1CCN(C(=O)c2ccc(C(C)(C)C)cc2)CC1,i
Cc1ccc(N2C(=O)CC(N(C(=O)c3ccccc3Br)c3ccc(C)cc3)C2=O)cc1 (stereo not drawn),i
CCn1c(COc2cccc(C)c2)nc2ccccc21,4.7%
Cc1cccc(OCc2n[nH]c(=S)n2-c2ccccc2)c1,i
COc1ccc(-c2cc(C(=O)Nc3ccc([N+](=O)[O-])cc3C)c3ccccc3n2)cc1OC,i
CCc1ccccc1OCC(=O)NC(C)CC (stereo not drawn),i
O=C(Nc1cc(Cl)ccc1Cl)c1cccc(S(=O)(=O)N2CCCCC2)c1,1.8%
N#Cc1c(NC(=O)CSc2ncn[nH]2)sc2c1CCCCC2,i
O=c1cc(-c2cccs2)oc2ccc(O)cc12,i
CCOC(=O)c1sc(NC(=O)OC)c(C(=O)OC)c1C,i
O=Cc1ccccc1OC(=O)c1ccc(Cl)cc1Cl,i
O=C(NCc1ccccc1)c1cccc(NC(=O)c2cnccn2)c1,i
O=C(NCCCNC(=O)c1ccc(Cl)cc1)c1ccc(Cl)cc1,i
O=C(N1CCCC1)N1c2ccccc2CCc2ccccc21,i
CCOC(=O)Cc1sc(NC(=O)C(C)(C)Oc2ccc(Cl)cc2)nc1C,i
COc1ccc(-c2nnc(SCc3ccc(Br)cc3)n2Cc2ccccc2)cc1,5.5%
Cc1ccc(C(=O)Nc2ccc(-c3cc4ccccc4oc3=O)cc2)c(C)c1,4.7%
COc1ccc2cc(Br)ccc2c1CC(=O)Nc1ccc(F)cc1,i
Cc1cccnc1-n1c(-c2ccccc2)nc2ccccc2c1=O,i
CCOC(=O)COc1c(Cl)cc(C2NC(=S)NC(c3ccccc3)=C2C(C)=O)cc1OCC (stereo not drawn),i
Cc1nc(N)sc1-c1csc(Nc2ccccc2F)n1,i

# Five compounds picked at random from the list so far, as already listed:
SMILES,Mtb H37Rv
O=C(Nc1cc(Cl)ccc1Cl)c1cccc(S(=O)(=O)N2CCCCC2)c1,1.8%
COc1ccc(-c2cc(C(=O)Nc3ccc([N+](=O)[O-])cc3C)c3ccccc3n2)cc1OC,i
Cc1ccc(N2C(=O)CC(N(C(=O)c3ccccc3Br)c3ccc(C)cc3)C2=O)cc1 (stereo not drawn),i
N#Cc1c(NC(=O)CSc2ncn[nH]2)sc2c1CCCCC2,i
O=c1cc(-c2cccs2)oc2ccc(O)cc12,i

# (more compounds)
SMILES,Mtb H37Rv
CCOC(=O)c1nnc2ccnn2c1N,i
Cc1ccc(N(C)C2=NC(=O)CS2)cc1Cl,i
Nn1c(CN2CCCCC2)nc2ccccc2c1=O,1.2%
CCOc1ccccc1C(=O)Nc1cc(Cl)ccc1OC,i
O=C(Nc1ccccc1C(=O)N1CCOCC1)c1ccc(F)cc1,i
O=C(NC(=O)C(F)(F)F)Nc1ccc2c(c1)OCCO2,i
O=C(CC1CCCCC1)Nc1cccc2ccccc12,i
CCS(=O)(=O)N1CCC(N2CCN(c3ccccc3)CC2)CC1,1.4%
CCOC(=O)C1=C(C)NC(=S)NC1c1ccc(OC(=O)c2ccco2)c(OC)c1 (stereo not drawn),i
O=C(Nc1ccc(S(=O)(=O)Nc2ccccn2)cc1)c1cccnc1,i
CC1(C)CC(=O)C2=C(C1)N(Cc1ccccc1)C(=O)C2(NC(=O)c1cccc([N+](=O)[O-])c1)C(F)(F)F (stereo not drawn),1.8%
COc1ccc(C(=S)N2CCC(Cc3ccccc3)CC2)cc1OC,i
O=C(Cn1cnc2ccc([N+](=O)[O-])cc2c1=O)N1CCOCC1,6.0%
CCCc1ccc(OCC(=O)Nc2ccc(F)cc2)cc1,0.85µg/mL*
Cc1nnc(SCC(=O)Nc2ncccn2)s1,i
CCCC(=O)N(Cc1ccccc1)C(C)C,i
CCC(C)NC(=O)c1ccccc1NC(=O)CN(c1ccccc1OC)S(=O)(=O)c1ccc(C)cc1 (stereo not drawn),i
O=C(NC12CC3CC(CC(C3)C1)C2)c1ccc(Cl)cc1,1.1%
COC(=O)NNC(=S)Nc1cc(OC)ccc1OC,i
O=C1C(=O)N(Cc2nnc(-c3ccccc3)o2)c2ccccc21,i
Cc1c(C(=O)Nc2ccccc2-c2nc3ccccc3s2)cccc1[N+](=O)[O-],i
COc1cc(OC)c(C(=O)Nc2cc(C)cc(C)c2)cc1OC,i
CCOC(=O)C(O)(c1ccc(NC(=O)NC2CCCCC2)c(OC)c1)C(F)(F)F (stereo not drawn),i
CC(C)(C)C(=O)c1cn(CC(=O)N2CCCC2)c2ccccc12,i
CCc1cccc(C)c1NC(=O)CSc1nnc(CCCOc2ccc(Cl)cc2Cl)n1C,i

# The list goes on.
SMILES,Mtb H37Rv
CC(Sc1nnnn1-c1ccccc1)C(=O)NC(c1ccccc1)c1ccccc1 (stereo not drawn),i
COc1ccc(Cl)cc1C1NC(=S)NC(C)=C1C(=O)Nc1ccccc1C (stereo not drawn),i
O=C(Oc1ccc(C(=S)N2CCCC2)cc1)c1ccc(Cl)cc1Cl,44.5%
Cc1ccc(Br)cc1S(=O)(=O)N1CCN(c2ccc(F)cc2)CC1,i
O=C(CSCc1ccccc1)Nc1ccc(OCC(=O)N2CCOCC2)cc1,i
O=C(c1ccccc1Cl)N1CCN(S(=O)(=O)c2ccc3ccccc3c2)CC1,i
CCN1C(=O)c2cccc3c(NC(=O)c4ccc(Cl)s4)ccc1c23,1.2%
Cc1ccc(-n2ncc3c(N4CCOCC4)ncnc32)c(C)c1,i
COc1ccc(NC(=O)COc2ccccc2C(C)(C)C)cc1OC,9.9%
COc1ccc(S(=O)(=O)N(CC(=O)Nc2ccc(C(F)(F)F)cc2)c2ccccc2)cc1,i
CCOc1ccc(C(=O)Nc2cccc(C)c2C)cc1Br,i
CC(C)N(C(=O)c1ccc(I)cc1)C(C)C,3.5%
CCc1ccccc1NC(=O)CSc1ncn[nH]1,i
CC(Sc1nnc(C(F)(F)F)n1N)C(=O)NC(c1ccccc1)c1ccccc1 (stereo not drawn),2.2%
COCc1nc2ccccc2n1C(C)c1ccccc1 (stereo not drawn),i
Cc1c(Cl)cccc1NC(=S)Nc1ccn(Cc2cccc3ccccc23)n1,i
Cc1ccccc1OCc1nc(-c2ccncc2)no1,i
CCN(CC)CC(=O)Nc1ccc([N+](=O)[O-])cc1,i
O=c1cc(O)c2sc(Nc3ccc(F)cc3)nc2[nH]1,i
CC(/C=N/NC(=O)CSc1nnc(-c2ccc(Cl)cc2)n1-c1ccccc1)=C\c1ccccc1,i
COc1cc(COc2ccc3c(C)cc(=O)oc3c2)cc(OC)c1OC,i
Cn1c(SCC(=O)n2c3c(c4ccccc42)CCCC3)nnc1-c1ccco1,i
CS(=O)(=O)N(CC(=O)Nc1ccccc1Sc1ccccc1)c1ccccc1F,i
CCOc1ccc(N(CC(=O)NCc2ccncc2)S(=O)(=O)c2ccc(OC)c(OC)c2)cc1,i
COc1cc(C2CC(=O)NC(SCC(=O)Nc3c(C)cc(C)cc3C)=C2C#N)ccc1OCc1ccccc1 (stereo not drawn),i

# (cont.)
SMILES,Mtb H37Rv
CC12CCC(C(=O)NC3CCCC3)(CC1=O)C2(C)C (stereo not drawn),i
CC(=O)Nc1cccc(NC(=S)Nc2cccc(Cl)c2Cl)c1,i
Cc1ccc(C(=O)Nc2cccc(-c3nc4ccccc4[nH]3)c2)cc1,i
Cc1cc(C)c(S(=O)(=O)N(C)CC(=O)N2CCN(C)CC2)c(C)c1,i
CCc1cc2c(N3CCCCC3)ncnc2s1,i
CN(C)c1ccc(-n2c(CCC(=O)O)ccc2-c2cccs2)cc1,i
COc1cc(F)ccc1S(=O)(=O)N1CCN(C23CC4CC(CC(C4)C2)C3)CC1,1.3%
O=C(NN1C(=O)C2C3c4ccccc4C(c4ccccc43)C2C1=O)c1cccnc1 (stereo not drawn),i
CCCn1nnc(NC(=O)c2ccc(Br)o2)n1,i
COc1c(Cl)ccc(Cl)c1C(=O)N1CCOCC1,i
CN(c1cccc(NS(=O)(=O)c2ccccc2)c1)S(C)(=O)=O,4.0%
c1ccc2c(C(c3ccncc3)c3c[nH]c4ccccc34)c[nH]c2c1,12.2µg/mL*
COCCCN1C(=O)c2ccc(C(=O)Nc3ccc(Oc4cc(C)cc(C)c4)cc3)cc2C1=O,i

# Four entries out of the list, ordered by formula weight, smallest number first.
SMILES,Mtb H37Rv
CCc1cc2c(N3CCCCC3)ncnc2s1,i
CCCn1nnc(NC(=O)c2ccc(Br)o2)n1,i
Cc1ccc(C(=O)Nc2cccc(-c3nc4ccccc4[nH]3)c2)cc1,i
O=C(NN1C(=O)C2C3c4ccccc4C(c4ccccc43)C2C1=O)c1cccnc1 (stereo not drawn),i
